Bioassay records (PubChem BioAssay)
HSV augment: increases HSV replication in cells. HSV replication augmentation in cells, fold increase. maximum fold increase. 220,000 compounds, 0.005% hits;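 active = peak rise of 1.5-fold or more in the series; tested in PC3 cells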;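 also: first round at 10 µM; read as green reporter fluorescence; hits show the peak of a series up to 25 µM; 1 = signal of infected wells without compound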
PKD1 kinase inh: blocks activity of human protein kinase D1 | Q15139 | PKD1 kinase fluorescence polarization assay | inhibition, %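 (about 10 µM by stock and volumes)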 | 200,000 compounds, 0.056% hits | AID 797;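 active = inhibition of 50% or more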;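 also: controls were vehicle for no effect and a reference inhibitor for full effect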
RGS16-Gao HTS: RGS16-Galphao interaction regulator (human); O15492+P09471; bead-based flow cytometry RGS16-Galphao binding, fluorescence; actives lie on both sides; binding response (% of control), % at 10 µM; 220,000 compounds, 0.38% hits;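 active = below 25% or above 175%, edge rows of some plates excepted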;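 also: Galphao activated by GDP with aluminum fluoride before binding; 100% = wells without compound and 0% = beads without RGS; some results beyond the cut were filed as inactive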
Target sequence (O15492 whole entry, looked up): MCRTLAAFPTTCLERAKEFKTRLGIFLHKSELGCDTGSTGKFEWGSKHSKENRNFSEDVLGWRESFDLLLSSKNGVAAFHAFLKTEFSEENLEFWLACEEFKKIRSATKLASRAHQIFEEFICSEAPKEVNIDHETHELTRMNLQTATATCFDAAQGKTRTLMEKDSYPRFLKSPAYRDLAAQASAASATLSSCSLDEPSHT
Target sequence (P09471 whole entry, looked up): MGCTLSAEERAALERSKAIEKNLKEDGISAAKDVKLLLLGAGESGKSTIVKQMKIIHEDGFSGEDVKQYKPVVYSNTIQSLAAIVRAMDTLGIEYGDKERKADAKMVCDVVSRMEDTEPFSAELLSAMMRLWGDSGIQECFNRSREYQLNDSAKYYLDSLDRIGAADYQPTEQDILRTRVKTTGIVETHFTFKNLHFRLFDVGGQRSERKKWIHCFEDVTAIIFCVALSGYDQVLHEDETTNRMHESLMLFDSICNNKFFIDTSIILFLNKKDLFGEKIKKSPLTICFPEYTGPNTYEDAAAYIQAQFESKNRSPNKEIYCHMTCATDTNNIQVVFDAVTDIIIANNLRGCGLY
GALR2 agonist: agonists of human galanin receptor 2 (GALR2); GALR2-expressing cells, agonist activation read-out; 140,000 compounds, 0.48% hits; activation, %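 (tested at 5 µM)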; O43603;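 active = above mean plus 3 SD of all compounds, about 5% in these data, not always enough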;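 also: 0% = vehicle buffer wells and 100% = reference agonist at full effect; tested in CHO reporter cells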
Target sequence (O43603 whole entry, looked up): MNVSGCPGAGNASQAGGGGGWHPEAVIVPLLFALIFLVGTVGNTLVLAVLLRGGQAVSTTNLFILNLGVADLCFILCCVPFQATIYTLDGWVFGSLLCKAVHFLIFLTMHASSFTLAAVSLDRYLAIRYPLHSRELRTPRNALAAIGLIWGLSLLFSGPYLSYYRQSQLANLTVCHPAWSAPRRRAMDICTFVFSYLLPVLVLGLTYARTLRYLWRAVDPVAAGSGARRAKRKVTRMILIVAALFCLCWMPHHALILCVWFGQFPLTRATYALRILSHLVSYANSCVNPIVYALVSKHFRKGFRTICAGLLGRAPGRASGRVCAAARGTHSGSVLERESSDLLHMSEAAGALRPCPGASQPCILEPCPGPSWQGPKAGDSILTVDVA
INS promoter inh: TRM-6 insulin promoter activity inhibition. TRM-6 cells (human fetal islet line), insulin promoter-eGFP reporter, imaging; reporter expression induced with tamoxifen. inhibition, % at 2 µM. 130,000 compounds, 0.9% hits. AID 1273;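 active = inhibition above the mean plus 3 SD, with well images judged a real hit on visual review, cut at about 60% in these data, passing the limit was not always enough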
INS promoter inh cell count: further read-out of INS promoter inh, marked with its call; normalized cell count, %; measured here: cell count, toxicity; reference of the scale not given here;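 cells exposed to compound for 48 h; stained nuclei by imaging scaled within each plate; lower means fewer cells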
HSV augment primary fold: further read-out of HSV augment, marked with its call; fold increase; compound at 10 µM; measured here: primary screen fold increase 10 uM; tested in PC3 cells;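 GFP signal in the first replicate; 1 = infected wells without compound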
* hit, by the source's call; i = inactive; . = no result given. The order is random; overall some 1.3% were active at least once.

cpd	Compound	HSV augment	HSV augment primary fold	PKD1 kinase inh	RGS16-Gao HTS	GALR2 agonist	INS promoter inh	INS promoter inh cell count
1	C=CCNC(=O)c1cc2sccc2n1C	i	0.92	.	89	.	.	.
2	CC1CCN(CCCNC(=O)c2cn(C)c3ccc(S(=O)(=O)N4CCCC4)cc3c2=O)CC1	i	0.97	-15	114	-0.5	31	128
3	Cc1ccc(N=Cc2ccc(N(C)C)cc2)cc1C	i	1	0	98	.	-43	138
4	CN(Cc1nc2ccccc2[nH]1)Cc1nc(CC2CC2)no1	i	1.2	7	100	.	.	.
5	O=C(NC1CC1)C1=C[C@H](c2ccccc2)C[C@H](OCc2ccc(CO)cc2)O1	i	0.83	-7	98	.	.	.
6	CCCNS(=O)(=O)c1cccc(C(=O)NC2CCCc3ccccc32)c1 (centres undefined)	i	0.91	-7	103	-1.0	-4	110
7	Cc1cccc(CC(C)NC(=O)CCc2nnc(CCCCc3ccccc3)o2)n1 (centres undefined)	i	1	-11	104	.	-30	166
8	COc1ccc(CC(=O)NNc2ncnc3c2cnn3Cc2ccccc2)cc1OC	i	0.94	.	89	.	.	.
9	CCOC(=O)N1CCN(Cc2cccs2)CC1	i	0.92	-8	104	0.1	50	135
10	CCc1nn(-c2ccccc2)c(=S)c2ccccc12	i	0.94	-3	99	.	.	.
11	O=C(c1ccc([N+](=O)[O-])cc1)N1CCSC1c1ccc(Cl)cc1 (centres undefined)	i	1.1	-10	62	-1.4	16	93
12	CN(C)CCCN(C(=O)CCc1ccccc1)c1nc2ccc(F)cc2s1	i	0.68	-5	98	-0.8	-32	79
13	CCOC(=O)c1cccc(NC(=O)C2CCN(S(=O)(=O)c3cccs3)CC2)c1	.	.	4	98	0.7	-45	110
14	COc1ccc(-c2nnc(SC(C)C(=O)Nc3c(C)n(C)n(-c4ccccc4)c3=O)o2)cc1 (centres undefined)	i	0.96	0	69	-1.3	-26	211
15	COc1ccc(O)c(-c2cc(-c3cccc(Br)c3)n[nH]2)c1	.	.	-4	106	0.4	.	.

Part of the list above, set out differently.
3. Cc1ccc(N=Cc2ccc(N(C)C)cc2)cc1C
  HSV augment: i
  HSV augment primary fold: 1
  PKD1 kinase inh: 0
  RGS16-Gao HTS: 98
  GALR2 agonist: .
  INS promoter inh: -43
  INS promoter inh cell count: 138
4. CN(Cc1nc2ccccc2[nH]1)Cc1nc(CC2CC2)no1
  HSV augment: i
  HSV augment primary fold: 1.2
  PKD1 kinase inh: 7
  RGS16-Gao HTS: 100
  GALR2 agonist: .
  INS promoter inh: .
  INS promoter inh cell count: .
5. O=C(NC1CC1)C1=C[C@H](c2ccccc2)C[C@H](OCc2ccc(CO)cc2)O1
  HSV augment: i
  HSV augment primary fold: 0.83
  PKD1 kinase inh: -7
  RGS16-Gao HTS: 98
  GALR2 agonist: .
  INS promoter inh: .
  INS promoter inh cell count: .

(more compounds)
cpd	Compound	HSV augment	HSV augment primary fold	PKD1 kinase inh	RGS16-Gao HTS	GALR2 agonist	INS promoter inh	INS promoter inh cell count
16	CCOc1cccc(C(=O)Nc2ccc(N(CC)CC)cc2)c1	i	0.76	-2	101	-2.0	.	.
17	CCN(c1c(C)n(C)n(-c2ccccc2)c1=O)S(C)(=O)=O	i	0.84	-1	105	-0.1	-3	95
18	NS(=O)(=O)c1ccc(N/N=C2/CCCc3ccccc32)c([N+](=O)[O-])c1	i	0.9	3	96	.	.	.
19	CCC(Sc1nc2cc(OC)c(OC)cc2c(=O)n1Cc1ccc(OC)cc1)C(=O)NCCOC (centres undefined)	i	0.87	-2	100	.	.	.
20	CCOC(=O)NC(=O)CSc1nc(C)cc(C)c1C#N	i	0.93	5	83	-0.6	26	117
21	C=CCOCC(O)CS(=O)(=O)Cc1ccc(Cl)cc1 (centres undefined)	i	0.96	-4	98	-1.3	19	11
22	CC(NC(=O)CC12CC3CC(CC(C3)C1)C2)C(=O)O (centres undefined)	i	1	-5	102	-1.4	-176	85
23	CCOc1cc(/C=N/O)ccc1OCC(=O)Nc1cccc(C)c1	i	0.93	-4	103	0.5	-34	105
24	CCOc1cccc(C(=O)Nc2ccccc2OC(F)F)c1	i	1	4	100	-3.1	6	127
25	CCOC(=O)/C(C#N)=N/Nc1ccc(S(=O)(=O)N2CCc3ccccc32)cc1	i	0.94	5	106	0.0	10	112
26	CS(=O)(=O)N(CC(=O)N/N=C/c1ccc(OCC(=O)N2CCOCC2)cc1)c1ccccc1Cl	i	0.97	-3	105	-0.9	38	120
27	O=C(CN1C(=O)CC(c2ccco2)Sc2ccccc21)NC1CCCCC1 (centres undefined)	.	.	4	107	.	.	.
28	CCC(=O)c1ccccc1OCCN1C(=O)NC(C)(C)C1=O	i	1	-2	105	-1.4	0	98
29	Cc1ccc(-c2csc(-c3c[nH]c4ccccc34)n2)c(C)c1	i	0.98	0	99	-1.6	-48	72
30	CCCCc1c(O)nc2sc3cc(OC)ccc3n2c1=O	i	0.97	0	103	-1.3	-30	104
31	Cc1cccc(NC(=O)c2cc([N+](=O)[O-])ccc2N2CCN(C)CC2)c1	i	1	-10	100	.	.	.
32	O=C(Cc1cccs1)Nc1nnc(SCc2cccc3ccccc23)s1	i	0.99	5	101	0.3	.	.
33	C/C(=N\NC(=O)CCc1ccc(S(=O)(=O)N2CCOCC2)cc1)c1ccc(Br)cc1	i	0.8	0	96	.	.	.
34	CCN(Cc1ccccc1)C(=O)C1CCC(CNc2c(N3CCOCC3)c(=O)c2=O)CC1 (centres undefined)	i	1.1	-10	105	-0.7	.	.
35	O=C(NNC1=NC2(CCCC2)Cc2ccccc21)c1ccncc1	i	0.93	1	99	.	-6	104
36	COC(=O)c1cn(NC(=O)Cc2ccc(Cl)c(Cl)c2)c(=O)c2ccccc12	i	1.1	2	198	-0.8	-52	54
37	CSc1nc2c(c(=O)n1C)SC(C)C2 (centres undefined)	i	0.89	-4	100	-2.9	.	.
38	CC1(C)C(=O)OC(C(=O)c2ccc(Cl)cc2)C(C)(C)C1=O (centres undefined)	i	0.91	-7	105	-1.2	3	92
39	O=C(OCc1nnc(-c2ccccc2)o1)c1cccnc1Cl	i	1	-3	100	.	7	116
40	Nc1ccccc1C(=O)NCc1ccc(F)cc1	i	0.97	1	102	.	.	.
41	COc1ccc(S(=O)(=O)/N=C2/NC(=O)/C(=C\c3ccco3)S2)cc1	.	.	-7	90	-1.7	7	112
42	CCOC(=O)C(=O)/C(=C\N(C)C)c1onc(-c2ccccc2)c1C(=O)OC	i	0.95	7	101	-3.1	-12	118
43	O=C(/C=C/c1cccs1)NC1CC1	i	1.1	0	104	.	-25	105
44	CC(C(=O)Nc1nccs1)N1C(=O)C2CC=CCC2C1=O (centres undefined)	i	0.98	-4	98	-0.9	29	123
45	C=CCN(CC(O)c1cccc([N+](=O)[O-])c1)C(C)CCc1ccccc1 (centres undefined)	i	1	.	87	.	.	.

7 structures out of the list, arranged by heavy-atom count, descending.
cpd	Compound	HSV augment	HSV augment primary fold	PKD1 kinase inh	RGS16-Gao HTS	GALR2 agonist	INS promoter inh	INS promoter inh cell count
36	COC(=O)c1cn(NC(=O)Cc2ccc(Cl)c(Cl)c2)c(=O)c2ccccc12	i	1.1	2	198	-0.8	-52	54
32	O=C(Cc1cccs1)Nc1nnc(SCc2cccc3ccccc23)s1	i	0.99	5	101	0.3	.	.
39	O=C(OCc1nnc(-c2ccccc2)o1)c1cccnc1Cl	i	1	-3	100	.	7	116
44	CC(C(=O)Nc1nccs1)N1C(=O)C2CC=CCC2C1=O (centres undefined)	i	0.98	-4	98	-0.9	29	123
40	Nc1ccccc1C(=O)NCc1ccc(F)cc1	i	0.97	1	102	.	.	.
37	CSc1nc2c(c(=O)n1C)SC(C)C2 (centres undefined)	i	0.89	-4	100	-2.9	.	.
43	O=C(/C=C/c1cccs1)NC1CC1	i	1.1	0	104	.	-25	105

(further entries)
cpd	Compound	HSV augment	HSV augment primary fold	PKD1 kinase inh	RGS16-Gao HTS	GALR2 agonist	INS promoter inh	INS promoter inh cell count
46	NNC(=O)c1csc(-c2cccc(C(F)(F)F)c2)n1	i	0.9	0	104	.	-23	88
47	C=CCON/C(CCC)=C1\C(=O)CC(C)(C)CC1=NC	i	0.95	.	103	.	.	.
48	CC(C)(C)NC(=O)COc1ccc(CNn2nnnc2N)cc1	i	0.71	1	107	-2.5	7	102
49	Cc1cc(C)n(-c2n[nH]c(C)c2[N+](=O)[O-])n1	i	1.1	-2	100	.	.	.
50	CSc1nn2c(C(F)(F)F)cc(C(F)(F)F)nc2c1C(N)=O	i	0.98	.	106	.	.	.
51	Cc1cccc(-n2nc3c(c2NC(=O)c2ccc(Br)o2)CSC3)c1C	i	1	1	100	1.1	-9	97
52	Cc1noc(C)c1S(=O)(=O)Nc1cc(C(F)(F)F)ccc1N1CCOCC1	i	1.1	.	98	.	.	.
53	CCOC(=O)C1C(C(=O)Nc2cccc(C(F)(F)F)c2)C1C(=O)NC(C)C (centres undefined)	i	1	-4	100	.	-36	74
54	Cn1c2ccccc2c(=O)c2c(=O)n(Cc3ccco3)c(-c3ccc(C(C)(C)C)cc3)nc21	i	0.93	.	101	.	.	.
55	COc1ccccc1S(=O)Cc1ccc(C(=O)NCCc2ccc(Cl)cc2)o1 (centres undefined)	i	0.83	4	111	-2.4	.	.
56	CCC(CC)c1nnc(NC(=O)C2COc3ccccc3O2)s1 (centres undefined)	i	0.87	2	101	-2.4	12	162
57	COc1cc(N)ccc1Cc1ccc(N)cc1OC	i	0.91	-4	100	-2.8	29	157
58	COc1ccc(C2CC(c3ccccc3OC(C)=O)=NN2C(=O)/C=C/c2ccccc2)cc1 (centres undefined)	i	0.93	6	104	0.4	-38	114
59	CCS(=O)(=O)NCc1ccc2[nH]c3c(c2c1)CCCC3	i	0.89	-21	104	-0.7	.	.
60	Cc1ccc(S(=O)(=O)N2CCN(S(C)(=O)=O)C2c2ccccc2)cc1 (centres undefined)	i	0.84	-7	102	-0.9	-22	124
61	Cc1ccc(NC(=O)c2ccccc2F)nc1	i	0.95	-10	99	-2.7	38	166
62	CCCCNCC(=O)Nc1sc(C)c(C)c1C(=O)OCC	i	0.84	-9	109	0.0	20	102
63	COc1ccc(-n2c(=O)c3ccccc3n(Cc3ccccc3F)c2=O)cc1OC	i	0.9	-1	100	.	25	93
64	CCC1Oc2ccc(Cl)cc2N(CC(=O)O)C1=O (centres undefined)	i	0.96	4	98	-0.7	.	.
65	O=C(CN1CCN(c2cccc(C(F)(F)F)c2)CC1)Nc1cccc(C(F)(F)F)c1	i	0.97	-2	102	-2.4	14	33
66	COc1cc(OC)nc(Oc2ccccc2C(=O)Oc2ccccc2Cl)n1	i	1	2	101	-2.1	-5	73
67	Cc1cc(C)c(S(=O)(=O)C(C)C)c(=O)[nH]1	i	1	-2	101	.	20	68
68	Cn1nnc2cc(C(=O)NCc3ccco3)ccc21	i	0.91	-4	104	1.8	-7	87
69	CC[n+]1c(/C=C(\C)SC)sc2ccccc21	i	0.86	0	101	-0.3	-21	68
70	COc1ccc(NC(=O)CSc2c3c(nc4ccccc24)CCCC3)c(OC)c1	i	0.75	5	70	-2.3	-7	111
71	Cc1cccc(NC(=S)Nc2ccc(Oc3ccccc3)cc2)n1	i	0.99	-11	105	-1.8	.	.
72	CCOC(=O)c1cc(-c2ccccc2)sc1NC(=O)CN1C(=O)c2ccccc2C1=O	i	0.99	-4	.	-1.9	30	105
73	OCCN(Cc1ccccc1)C(=S)Nc1ccc(F)cc1	i	1	-2	102	.	.	.
74	COC(=O)c1c(C)[nH]c(C(=O)N2CCN(c3ccc(OC)cc3)CC2)c1C	i	0.99	-3	93	.	.	.
75	Cc1noc(NS(=O)(=O)c2ccc(N/C=C\C(=O)c3ccccc3)cc2)c1C	i	0.94	2	100	.	-18	77
76	CN(C(=S)Nc1ccccc1F)C1(c2ccccc2Cl)CCCCC1=O (centres undefined)	i	1	-1	101	-2.1	5	165
77	O=C(COC(=O)c1cccs1)NCCCc1ccccc1	i	0.99	-8	112	.	19	111
78	COc1ccc(-c2ncc3ccccn23)cc1	i	0.97	-4	97	-1.2	62	55
79	COc1ccc(-c2nc(C#N)c(N3CCC(C(N)=O)CC3)o2)cc1	i	1.1	-5	99	2.3	0	100
80	O=C(CCCNS(=O)(=O)c1cccc2nsnc12)N1CCCCC1	i	0.88	-5	96	-2.5	29	45
81	Cc1n[nH]c(=O)n1-c1ccc(C(C)(C)C)cc1	i	0.95	-3	98	.	.	.
82	CCN(C(=O)CSc1nnc(Cn2nnc3ccccc32)o1)c1nc(-c2ccccc2)cs1	i	0.94	-6	100	-1.1	41	167
